# Screening results: PubChem BioAssay, Johns Hopkins Ion Channel Center
# KCNQ2 enhance: KCNQ2 (rat) channel potentiation. O88943. CHO-K1 KCNQ2, FluxOR thallium flux fluorescence; stronger effect = higher value. B-score at 10 µM. 310,000 compounds, 0.54% hits;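 active = fluorescence ratio B-score at least 3 SD of library B-scores, with initial fluorescence B-score within 3 SD, cut at about 5.3 in these data; same plate scores as AID 2156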;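 also: B-score of peak minus minimum over baseline fluorescence ratio after K+ and Tl+ stimulus; positive B-score means potentiation of KCNQ2 with more thallium influx and brighter signal; only the inactives scoring about 0 or higher are listed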
# Target sequence (O88943 whole entry, looked up): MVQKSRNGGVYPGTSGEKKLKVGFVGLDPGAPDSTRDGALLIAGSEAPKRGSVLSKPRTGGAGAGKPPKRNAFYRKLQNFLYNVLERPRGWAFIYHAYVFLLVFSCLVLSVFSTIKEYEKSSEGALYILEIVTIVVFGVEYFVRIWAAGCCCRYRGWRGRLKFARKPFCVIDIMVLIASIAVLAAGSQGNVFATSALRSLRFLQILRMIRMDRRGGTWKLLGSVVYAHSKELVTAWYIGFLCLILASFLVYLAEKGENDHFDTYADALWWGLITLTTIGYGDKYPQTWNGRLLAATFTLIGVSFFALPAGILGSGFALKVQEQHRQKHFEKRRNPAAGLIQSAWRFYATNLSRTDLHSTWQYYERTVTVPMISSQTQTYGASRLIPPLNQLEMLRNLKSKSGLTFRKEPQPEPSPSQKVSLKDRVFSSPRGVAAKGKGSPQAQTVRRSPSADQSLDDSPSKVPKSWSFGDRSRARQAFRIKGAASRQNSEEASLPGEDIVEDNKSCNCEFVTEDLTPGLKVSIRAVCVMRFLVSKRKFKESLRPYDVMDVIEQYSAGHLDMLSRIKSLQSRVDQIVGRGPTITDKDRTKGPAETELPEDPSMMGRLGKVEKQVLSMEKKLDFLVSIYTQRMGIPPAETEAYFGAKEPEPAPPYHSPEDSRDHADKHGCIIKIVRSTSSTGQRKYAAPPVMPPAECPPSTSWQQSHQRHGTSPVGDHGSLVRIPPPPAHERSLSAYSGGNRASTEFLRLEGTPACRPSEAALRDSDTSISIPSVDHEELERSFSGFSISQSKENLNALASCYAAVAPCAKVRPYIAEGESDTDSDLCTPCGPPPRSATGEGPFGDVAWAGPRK
# KCNQ2 enhance baseline: second read-out of KCNQ2 enhance, no call of its own (marks repeat the call); B-score; compound at 10 µM; measured here: initial fluorescence intensity artifact check;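 brightness before thallium and not channel activity; 0 = typical well and far values either way flag optical interference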
# An asterisk follows results filed as active; . = no result given.
KCNQ2 enhance	KCNQ2 enhance baseline	canonical_smiles
2.2	0.09	COc1ccccc1OC(C)C(=O)N1CCc2ccccc21 (stereo not given)
1.1	-2	COc1ccc(NC(=O)CSc2nnc(-c3ccccc3C)n2N)cc1OC
1.7	-1.5	CCOC(=O)c1csc(-c2ccc(OC)c(OC)c2)n1
1.3	-0.24	Cn1ncc(Br)c1NC(=O)Nc1ccc(Cl)cc1
0.02	0.55	OC(COc1ccccc1)Cn1c2ccccc2c2ccccc21 (stereo not given)
1.6	-0.98	O=C(CN1C2=NCCCN2c2ccccc21)c1ccc([N+](=O)[O-])cc1
0.08	-0.02	Cc1ccc2c(c1)c(C1=c3ccccc3=NC1=O)c(O)n2C
0.73	-0.52	O=C(Nc1ccc2nsnc2c1)C1CC1
2.2	-0.85	C/C(CCc1ccccc1)=N/NC(=O)C(=O)NC(C)c1ccccc1 (stereo not given)
0.69	0.03	Cc1cccc(-n2nc3c([n+]2[O-])CCc2nonc2-3)c1C
0.04	0.87	CC(/C=N\N1CCN(c2ccc(Cl)cc2)CC1)=C\c1ccccc1
0.96	-1.1	CCOC(=O)N1CCN(C(=O)CCn2c(=S)[nH]c3ccccc3c2=O)CC1
0.86	-1.1	COc1ccc(CN(CC(=O)NC2CCCC2)C(=O)c2ccc(-c3ccccc3)[nH]2)cc1
1.3	0.45	CCCCC(=O)Nc1ccc2c(c1)nc1n2CCSC1
0.91	1.8	O=C(NCCO)c1ccccc1O
0.36	0.01	COc1ccc(OC)c(C(=O)NC(CC(N)=O)c2ccc(NCCN3CCCCC3)c([N+](=O)[O-])c2)c1 (stereo not given)
0.12	-0.63	COc1ccc(-c2nn3c(-c4cccc(C)c4)nnc3s2)cc1OC
2	-0.79	CCOC(=O)N1CCN(C(=O)NC2CCCCC2)CC1
0.18	-0.2	CCn1c(=O)c([N+](=O)[O-])c(N2CCSCC2)c2ccccc21
0.37	-1.9	Cc1nnc(SCC(=O)OC2CC(C)CCC2C(C)C)[nH]c1=O (stereo not given)
0.75	-0.09	O=C(NCc1cc(C(F)(F)F)cc(C(F)(F)F)c1)C1CC(c2ccc(C(F)(F)F)cc2)=NO1 (stereo not given)
2.1	-0.94	Nc1cc(C(F)(F)F)ccc1-n1cccc1
0.05	-0.05	CCc1cccc(CC)c1NC(=O)COn1nnc2ccc(C(F)(F)F)cc21
1.4	-0.96	Cc1cccc(N(CC(=O)NC2CCCCC2)C(=O)CCCC(=O)Nc2ccccn2)c1C
1.4	0.38	O=S(=O)(NCc1cccnc1)c1ccc2ccccc2c1
1.5	0.17	Cc1cc2c(c(C)nn2-c2ccccc2)c(=O)o1
0.45	-0.43	CCOC(=O)Cc1csc(NC(=O)CCN2C(=O)c3ccccc3C2=O)n1
1.1	1.8	Oc1ccc(Br)cc1/C=N/N1CCN(Cc2ccccc2)CC1
0.23	0.84	O=C1c2cccnc2C(O)N1Cc1cccs1 (stereo not given)
2.3	-0.75	CCCCCCc1c(C)c2ccc(OCC(=O)N[C@@H](Cc3ccccc3)C(=O)O)cc2oc1=O
0.43	-1.9	N#CC1(C#N)C(c2ccccc2)OC23CCCCC2C1(C#N)C(=N)O3 (stereo not given)
1	2	CN(CC(=O)Nc1ccc(F)cc1)C(=O)COC(=O)COc1ccc(C#N)cc1
0.83	-0.88	COc1ccc(C(=O)CSc2nc(C)cc(=O)[nH]2)cc1
0.4	-0.06	O=C(CN1CCN(c2ccccn2)CC1)Nc1cccc(F)c1
6.8*	-0.09*	CC(C)(C)c1nn(-c2ccccc2)c2[nH]c(=O)c(C=O)cc12
1.1	-0.17	CC(NC(=O)c1ccc(S(=O)(=O)N(C)C)cc1)c1ccccc1 (stereo not given)
0.35	0.74	COc1cccc2cc(C(=O)Nc3cc(C)cc(C)c3)/c(=N/NS(=O)(=O)c3ccccc3)oc12
0.57	0.53	O=C(c1cc(=O)c2ccccc2o1)N1CCN(c2ccccc2)CC1
0.28	1.1	Cc1ccc(C(=O)CSc2nc3c([nH]2)c(=O)n(C)c(=O)n3C)cc1
0.28	-0.08	COc1ccccc1C(=O)Nc1ccc2c(c1)nc(CCNC(=O)c1ccccc1)n2C
0.95	-0.93	O=C(O)CP(=O)(O)O
2	0.35	CCOC(=O)C1=C(O)C(=O)N(c2ccc(S(N)(=O)=O)cc2)C1c1cccc([N+](=O)[O-])c1 (stereo not given)
0.09	0.5	CCCSc1nc2cc(S(=O)(=O)N3CCOCC3)ccc2n1CC
0.23	-0.75	Cc1cccc(NC(=O)CCC(=O)Nc2nnc(C3CCCCC3)s2)c1
1.1	1.4	O=C(CCCn1c(=S)[nH]c2ccccc2c1=O)N1CCCCC1
0.27	-1.2	O=C(CN1CCC(n2nnc3cc(F)ccc32)CC1)NCCc1ccccc1
1	-1.7	CC(=O)Nc1ccc2sccc2c1
0.57	0.29	CC1CCc2[nH]c3ccc(C(=O)Nc4ccc(C(=O)N(C)C)cc4)cc3c2C1 (stereo not given)
0.23	0.32	CCN(CC)S(=O)(=O)c1ccc2[nH]cc(C(=O)NCCN3CCCCCC3)c(=O)c2c1
2.5	-0.86	CCN(CC)CCn1c2c(c(SCC(=O)Nc3cc(C)on3)nc1=O)CCCC2
1.5	-1.8	CCOc1ccc(N2C(=O)CC(N(CCc3ccc(OC)c(OC)c3)C(=S)Nc3ccccc3)C2=O)cc1 (stereo not given)
0.08	2.4	O=C(Nc1cccc(Cl)c1)c1cc(F)cc2c1OCOC2
0.82	1.2	Cn1ncc(Br)c1C(=O)OCC(=O)Nc1nc(-c2ccccc2)cs1
0.11	0.05	CC(=O)Nc1ccc(S(=O)(=O)Oc2ccccc2N2C(=O)C3C4CCC(C4)C3C2=O)cc1 (stereo not given)
2.1	-1.6	NNC(=O)c1cccn(Cc2ccc(Cl)cc2Cl)c1=O
1	-0.92	Cc1noc(C)c1C(=O)N1CCN(Cc2ccccc2)CC1
1.4	1.5	CCN(C(=O)Cc1c(C(=O)O)n(C)c2ccccc12)c1cccc(C)c1
1.1	1	C/C(Cn1nnc2ccccc21)=N\OC(=O)c1cc(F)c(F)cc1Cl
0.03	-0.98	O=C(CCn1nc(-c2ccc(Cl)cc2)c2ccccc2c1=O)NCCN1CCOCC1
0.06	0.01	Cc1cc(NC(=O)c2ccc3nc(-c4ccccc4)c(-c4ccccc4)nc3c2)no1

# (more compounds)
KCNQ2 enhance	KCNQ2 enhance baseline	canonical_smiles
0.62	-1.4	CCN(CC)S(=O)(=O)c1cccc(NC(=O)c2ccc(C#N)cc2)c1
0.05	-0.06	COc1ccc(-c2noc(-c3ccccc3F)n2)cc1
0.93	-0.44	O=C(CSc1nc2c(c(=O)[nH]1)CN(Cc1ccc(F)cc1)CC2)Nc1ccc(F)cc1
0.73	-0.02	CCC(C)[C@H](NS(=O)(=O)c1ccc(C)cc1)C(=O)N1CCC(C(=O)N[C@H](C(=O)O)c2ccccc2)CC1 (stereo not given in full)
0.46	0.36	COCCNC(=O)c1cccc2c1-c1ccccc1C2=O
0.32	0.42	COc1ccc(C(=O)Nc2ccc3[nH]c(-c4cccc(OC)c4)cc(=O)c3c2)cc1
0.34	0	O=C(CSc1ccc(-c2ccco2)nn1)N1CCCCCC1
1.3	0.37	CCCCN(C)C(=O)c1ccc(CS(=O)(=O)c2ccccc2C)o1
0.52	0.37	O=C(Cc1cccs1)Nc1nnc(SCC(=O)N2CCCCC2)s1
3	0.85	Cc1cccc(N2C(=O)N3[C@@H]4c5ccccc5OC[C@@H]4[C@@H](c4ccccc4)[C@]3(C)C2=O)c1
1.1	-0.81	Cc1ccc(Cl)cc1N1CCN(S(=O)(=O)c2c(C)nc3scc(C)n3c2=O)CC1
1.1	1.9	COc1ccc(-c2nnc3sc(-c4ccco4)nn23)cc1OC
0.26	0.26	Nc1c(C(=O)N/N=C/c2ccc(Cl)cc2)cnn1-c1ccccc1
0.69	-0.15	CCN(CC)CCCN(C(C)=O)c1nc(-c2cc(OC)ccc2OC)cs1
0.1	-0.06	COc1cc(CNCCCO)ccc1OCC(=O)NC(C)(C)C
0.46	-0.77	CCc1ccc(-c2cn(C3CCCCC3)c(=S)[nH]2)cc1
0.05	0.06	Cc1nc(C)n(CC(C)C(=O)N2CCN(S(=O)(=O)c3ccccc3)CC2)n1 (stereo not given)
0.93	-1.2	O=S1(=O)N=C(N(CCO)/N=C/c2ccc(Cl)cc2)c2ccccc21
0.06	-1.7	COC(=O)c1ccc2ccccc2c1OC1OC(CO)C(O)C(O)C1NC(C)=O (stereo not given)
0.03	0.52	c1ccc2c(CCNc3ncnc4nc[nH]c34)cccc2c1
1	-1.5	COc1ccc(-c2csc(NC(=O)C3CSC4(C)CCC(=O)N34)n2)c(OC)c1 (stereo not given)
3	0.69	CCCCC[C@H](O)/C=C/[C@H]1[C@H](O)CC(=O)[C@@H]1CCCCCCC(=O)O
0.55	-0.14	Cc1ccc2c(cnn2C(=O)CCCC(=O)NCc2cccc(F)c2)c1
0.2	0.19	Cc1ccc2nsnc2c1NC(=O)Cc1ccc(Cl)cc1
0.62	1.3	O=C(Cc1ncc(C(F)(F)F)cc1Cl)N1CCN(c2ccc(F)cc2)CC1
1.6	0.46	CCOC(=O)N1CCN(CCC(=O)Nc2ccc(OC(F)(F)F)cc2)CC1
1.7	-1.3	Cc1cc(N2CCCC2=O)ccc1S(=O)(=O)N1CCOCC1
0.74	0.54	CC(=O)c1cc2c(cc1NC(=O)CSc1nnc(C)s1)OCO2
1.1	0.02	CCN(CC)CCNC(=O)c1ccc(NC(=O)Cc2ccsc2)cc1
0.4	-2	CC(C)Cc1ccc(CN2CCCC(NC(=O)c3cnc4ccccn4c3=O)C2)cc1 (stereo not given)
0.04	-2	Cc1noc(C)c1C(=O)N(CC(C)C)c1nc2ccccc2s1
0.93	-1.1	Cc1ccccc1NC(=O)NCCCN1CCN(c2ccccc2)CC1
0.33	-0.08	COC(=O)c1ccc(N2CCN(C)CC2)c(NC(=O)COc2ccc(C)cc2)c1
0.43	-0.43	Cc1ccc(N2C(=O)CCC(C(=O)O)C2c2cccs2)cc1 (stereo not given)
0.07	1.3	O=C(CN1CCOCC1)Nc1ccccc1Sc1ccccc1
0.58	-0.3	O=C(NCc1ccccn1)C(=O)NN=C1CCCCCCC1

# Part of the list above in a different format.
smiles	KCNQ2 enhance	KCNQ2 enhance baseline
Cc1ccc2c(cnn2C(=O)CCCC(=O)NCc2cccc(F)c2)c1	0.55	-0.14
Cc1ccc2nsnc2c1NC(=O)Cc1ccc(Cl)cc1	0.2	0.19
O=C(Cc1ncc(C(F)(F)F)cc1Cl)N1CCN(c2ccc(F)cc2)CC1	0.62	1.3
CCOC(=O)N1CCN(CCC(=O)Nc2ccc(OC(F)(F)F)cc2)CC1	1.6	0.46
Cc1cc(N2CCCC2=O)ccc1S(=O)(=O)N1CCOCC1	1.7	-1.3
CC(=O)c1cc2c(cc1NC(=O)CSc1nnc(C)s1)OCO2	0.74	0.54
CCN(CC)CCNC(=O)c1ccc(NC(=O)Cc2ccsc2)cc1	1.1	0.02
CC(C)Cc1ccc(CN2CCCC(NC(=O)c3cnc4ccccn4c3=O)C2)cc1 (stereo not given)	0.4	-2
Cc1noc(C)c1C(=O)N(CC(C)C)c1nc2ccccc2s1	0.04	-2
Cc1ccccc1NC(=O)NCCCN1CCN(c2ccccc2)CC1	0.93	-1.1
COC(=O)c1ccc(N2CCN(C)CC2)c(NC(=O)COc2ccc(C)cc2)c1	0.33	-0.08
Cc1ccc(N2C(=O)CCC(C(=O)O)C2c2cccs2)cc1 (stereo not given)	0.43	-0.43
O=C(CN1CCOCC1)Nc1ccccc1Sc1ccccc1	0.07	1.3
O=C(NCc1ccccn1)C(=O)NN=C1CCCCCCC1	0.58	-0.3

# (listing goes on)
KCNQ2 enhance	KCNQ2 enhance baseline	canonical_smiles
1.4	1.7	CCC(=O)Nc1nc2ccccc2n1Cc1ccc(C)cc1
0.52	2.3	CC1=C(C)CC2C(=O)N(Cc3ccccc3)C(=O)C2C1 (stereo not given)
1	1	COc1cc2[nH]c(=O)n(CCC(=O)NCCCN3CCN(c4ccccc4F)CC3)c(=O)c2cc1OC
0.71	0.01	Cc1ccc(C(=O)N/N=C/c2ccc(-c3ccccc3[N+](=O)[O-])o2)cn1
0.81	2.5	COC(=O)c1ccc(Oc2ccc(S(=O)(=O)N3CCCCC3)cc2N)cc1
0.48	.	COC(=O)Nc1ccc2c(c1)N(C(=O)CCN1CCN3CCCC3C1)c1ccccc1CC2 (stereo not given)
0.82	-2.3	CCOc1ccc(C(=O)Nc2nncs2)cc1OCC
1.7	1.2	CC(C(=O)NC1CCCCCC1)c1ccc([N+](=O)[O-])cc1 (stereo not given)
2.1	1.3	Cn1c(CNc2ccc(F)cc2)nnc1SCC(=O)NNC(=O)Cc1ccccc1
0.32	-1.8	CCc1cc2c(=O)c(-c3nc4ccccc4n3C)c(C)oc2c(CN(CC)CC)c1O
0.62	1.2	CCOc1cc(C(N)=O)cc(OCC)c1OCC
0.98	1.1	Cc1ccc(NC(=O)CCc2c(C)[nH]c(=O)c(C#N)c2C)cc1
1.5	1.9	Cc1ccc2c(c1)[C@@H]1CN(C)CC[C@@H]1N2S(=O)(=O)c1ccc([N+](=O)[O-])cc1
1.7	-1	COc1ccc2ccccc2c1CN(C)Cc1ccccc1
2.2	-1.4	CCOC(=O)C1CCN(CC(O)COc2ccc(C(C)(C)CC)cc2)CC1 (stereo not given)
1.8	-1	O=C(/C=C/c1ccccc1)NC(NC(=S)Nc1ccc(C(=O)O)cc1)C(Cl)(Cl)Cl (stereo not given)
0.8	0.06	COc1ccc(NC(=O)c2ccc3c(c2)C(=O)N(CC2CCCO2)C3=O)c(OC)c1 (stereo not given)
2.3	-0.26	O=C(O)c1cc(N/N=C/c2ccc(OCc3ccccc3)cc2)ccc1Cl
1.1	-0.57	CCN1CCCC1CNC(=O)c1cc([N+](=O)[O-])c(N(C)C)cc1OC (stereo not given)
3.2	-2.3	COc1ccc(OC)c(C2NC(=O)N(C)C(C)=C2C(=O)OCc2ccccc2)c1 (stereo not given)

# An excerpt (hit frequency here may not be typical).
